Source: PubChem BioAssay
miR-21 reporter: qHTS Assay for Modulators of miRNAs and/orActivators of miR-21. HeLa miR-21 FLuc reporter, luciferase, 48 h. Potency, µM (top dose mostly 38.3 µM), for inactives: top-dose reporter change, positive = more light. 340,000 tested, under 10 active. AID 2288, 2010; active = well fitted rising curve with a large enough effect; inconclusive = small, poorly fitted or top-dose-only effect; inactive = no such curve, though single readings can be large or run the other way;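 note: % of control where 0% means no effect; miR-21 action dims this reporter so a rising signal means less miR-21 action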
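Luminescence from a firefly luciferase reporter carrying a miR-21 binding site downstream, stably expressed under a CMV promoter in HeLa cells that make miR-21 endogenously, reports miRNA modulation after 48 h compound exposure up to approximately 40uM final.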
Rango release inh: qHTS Assay for Inhibitors of RanGTP induced Rango (Ran-regulated importin-beta cargo) - Importin beta complex dissociation | 340,000 compounds, 0.071% hits | Biochemical FRET Rango-importin beta, RanGTP-induced dissociation | Snurportin-1 (Homo sapiens) + GTP-binding nuclear protein Ran (Homo sapiens) + Importin … | Potency, µM (titrated, usually from 46.1 µM), for the others: at the highest dose activity change, negative = inhibition; active means falling FRET ratio curve, often poorly fitted, with flat reads before Ran was added; inconclusive means other falling curves, or compound fluorescence or quenching; inactive means flat or rising ratio curve;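 note: potency is the fitted concentration of half-maximal effect; % of control where 0% means no effect; nearly all actives have a fitted effect of over 45% in size; -100% = wells without RanGTP and RCC1; the record marks most hits as doubtful in a second field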
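Recombinant Rango FRET biosensor (EYFP–snurportin 1 IBB–cerulean CFP10) at 0.1 uM premixed with 0.25 uM importin beta in PBS, 1 mM DTT, 0.02% Tween-20, 0.1% BSA. Compound added 5 min; RanGTP-RCC1 (0.6 uM Ran, 2 mM GTP, 0.2 uM RCC1) then triggers release, read at 45 min.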
Rango-impB inh: qHTS Assay for Inhibitors of Rango (Ran-regulated importin-beta cargo) - Importin beta complex formation | Potency, µM (titrated, usually from 92.2 µM), inactives show at the top dose inhibition of complex formation | Rango CFP/YFP FRET sensor + importin beta, 45 min | 340,000 compounds, 0.031% hits | AID 540263, 2011; active = rising FRET ratio curve, often small or poorly fitted; inconclusive = mostly compound fluorescence or quenching in the first reads; inactive = flat curves in all reads;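 note: potency is the fitted concentration of half-maximal effect; 0% = DMSO wells and 100% = buffer wells lacking importin beta; nearly all actives have a fitted effect of over 15% in size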
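FRET biosensor Rango (snurportin 1 IBB between N-terminal EYFP and C-terminal Cerulean), 50 nM in PBS/1 mM DTT/0.02% Tween-20/0.1% BSA, preincubated 5 min RT with compound; 0.125 microM importin beta added, 45 min RT, CFP/YFP FRET ratio read.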
GLA inh pH 4.5: qHTS Assay for Inhibitors of Human alpha-Galactosidase at pH 4.5; purified enzyme, 4-MU-alpha-Gal fluorescence, pH 4.5; AID 1467, 2008; activity change, negative = inhibition, % at 105 µM; 230,000 tested, under 10 active; Alpha-galactosidase A (Homo sapiens), P06280; inconclusive = small, poorly fitted or top-dose-only inhibition, or a rising curve; inactive = flat fitted curve, though single readings scatter; no compound was filed as active;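 note: 0% = full activity with enzyme and -100% = basal without enzyme; dose as in the result columns while the protocol names 77 µM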
Target sequence (P06280 whole entry, looked up): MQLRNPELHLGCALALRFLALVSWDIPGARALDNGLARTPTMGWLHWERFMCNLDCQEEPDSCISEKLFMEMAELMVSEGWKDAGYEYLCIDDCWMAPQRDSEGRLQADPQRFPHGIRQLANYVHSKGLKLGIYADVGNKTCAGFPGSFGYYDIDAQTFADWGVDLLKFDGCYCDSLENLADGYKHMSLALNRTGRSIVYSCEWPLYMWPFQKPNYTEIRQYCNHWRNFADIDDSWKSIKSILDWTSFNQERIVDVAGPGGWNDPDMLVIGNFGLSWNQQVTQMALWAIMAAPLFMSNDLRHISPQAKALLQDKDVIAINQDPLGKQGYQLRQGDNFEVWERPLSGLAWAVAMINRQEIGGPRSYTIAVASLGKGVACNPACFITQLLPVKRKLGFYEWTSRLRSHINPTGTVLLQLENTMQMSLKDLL
* hit, by the source's call; ? = inconclusive; / = no result given; & = joins results of further samples. A portion of the library; count on the stated rates, not on these rows.

structure,miR-21 reporter,Rango release inh,Rango-impB inh,GLA inh pH 4.5
CCOC(=O)c1c(C)nc2sc3c(=O)n(-c4ccc(OC)cc4)cnc3c2c1-c1ccc(OC)cc1,1%,4%,1.6%,3
CN1/C(=C/C(=O)c2ccc(Cl)cc2)Sc2cc3c(cc21)OCO3,-51%,?,?,5
CCOC(=O)c1cc(=O)n2nc(-c3ccccc3F)nc2s1,-3%,8%,1.6%,2
CCOC(=O)c1nnn(-c2nc(N3CCCC3)nc(N3CCCC3)n2)c1-c1ccccc1,-1%,-10%,4.4%,-5
CCCc1cc(=O)n2[nH]c(NCc3ccccc3F)nc2n1,-8%,6%,8.7%,-5
Cc1cccc(OCCCC(=O)NNC(=O)c2ccc(F)cc2)c1,/,-8%,2.4%,/
CCCCN(C)C(=O)c1nc2ccccn2c1CNCCCn1nnc2ccccc21,-9%,8%,-2.2%,6
CCN(C(=O)C(C)N1C(=O)/C(=C/c2cccs2)SC1=S)C1CCS(=O)(=O)C1 (stereo unspecified),-3%,1%,1.6%,/
COC(=O)C1=C(C)N(Cc2ccco2)C(=O)/C1=C\c1ccc([N+](=O)[O-])cc1,-2%,-4%,7.8%,1
O=C(CCc1ccccc1)NN1C(=O)C2C3C=CC(C3)C2C1=O (stereo unspecified),-3%,-9%,0.8%,-2
Cc1c(C=C(C#N)c2ccc([N+](=O)[O-])cc2)c(=O)n(-c2ccccc2)n1C,/,-19%,-0.6%,/
O=C(O)/C(=C\c1cccs1)c1ccccc1,-1%,-7%,0.3%,2
O=C(CCC1CCCC1)Nc1ccon1,1%,1%,-0.3%,-3
CS(=O)(=O)N1CCC(C(=O)NNC(=O)Nc2ccc(F)c(Cl)c2)CC1,0%,7%,1.8%,/
Cc1ccc(C(=O)Nc2ccc(NC(=O)c3ccco3)c(C)c2)cc1,-37%,7%,0.8%,/
O=C(Nc1ccc(C(=O)O)cc1)/C(=C\C=C\c1ccccc1)NC(=O)c1ccc(Br)cc1,-1%,-2%,-2.4%,-14
COc1ccc(-c2nn(CCC(=O)O)cc2/C=C2\SC(N)=NC2=O)cc1,-6%,-27%,0.3%,-11
NC(=O)CSc1nnc2n(-c3ccccc3)c(=O)c3c4c(sc3n12)CCCCC4,-5%,10%,2.1%,2
COc1ccc(C2C(C(=O)Nc3cccc(OC)c3)c3ccccc3C(=O)N2C)cc1 (stereo unspecified),-8%,-6%,-1.6%,0
O=C1CC(N2CCN(Cc3ccc4c(c3)OCO4)CC2)C(=O)N1CCc1ccccc1 (stereo unspecified),3%,9%,3.6%,0
Cc1nn(C(=O)CCC(=O)NCc2cccc(F)c2)c2ccccc12,-1%,12%,-1.1%,/
NC(=O)CSc1nnc(Cc2cccs2)n1C1CCCCC1,-4%,-6%,-0.8%,2
COc1ccc(CCNC(=O)c2cc3c(=O)n4cccc(C)c4nc3s2)cc1OC,0%,-6%,0.1%,/
CSc1ccc(/C=N/N2CCN(Cc3ccccc3Cl)CC2)cc1,1%,-4%,0.2%,-6
O=C1c2ccccc2C2NC(=O)C3(CCCCC3)N12 (stereo unspecified),-9%,-8%,-4.6%,-3
CC(=O)O[C@H]1C2OC(=O)C(C)=C2[C@@H]2OC(=O)[C@]3(CCC4OC41C)OC23 (stereo partly specified),-3%,15%,-0.8%,3
O=C(Nc1cccc(C(=O)Nc2ccc(Cl)cn2)c1)c1ccccc1,-13%,-1%,3.1%,/
Cc1ccsc1C(=O)OCC(=O)NCC1CCCO1 (stereo unspecified),-21%,-1%,1.4%,-1
CSC1=NC(C)(C)C=C(/C=C/c2ccc(Cl)cc2Cl)N1,-1%,-8%,0.1%,-1
Cc1ccc([C@@H]2[C@@H]3C(=O)N(c4ccccc4)C(=O)[C@@H]3[C@]3(Cc4ccccc4)C(=O)N(CC4CC4)CC(=O)N23)o1,0%,-9%,0.8%,/

The listing continues.
structure,miR-21 reporter,Rango release inh,Rango-impB inh,GLA inh pH 4.5
COc1ccc(S(=O)(=O)N2CCOCC2)cc1NC(=O)COc1ccc(C(C)=O)cc1OC,/,0%,5.3%,/
CCOc1cc(CNCCCN2CCOCC2)ccc1OCC(=O)Nc1cccc2ccccc12,-2%,6%,2.4%,-2
Clc1cccc(Cl)c1Cn1cnc2c(N3CCCCCC3)ncnc21,-3%,-14%,6.5%,-3
CCN(CC)S(=O)(=O)c1ccc2c(c1)nc(-c1ccccn1)n2C,-45%,2%,5.6%,/
CCCCC(=O)NC(c1ccc(OC)c(OC)c1)c1c(O)ccc2ccccc12 (stereo unspecified),-14%,-6%,-1.9%,1
O=C(NCc1ccco1)c1ccccc1NS(=O)(=O)c1cccs1,-4%,-2%,3.2%,-5
CC(C)NC(=O)C1COc2ccccc2O1 (stereo unspecified),-3%,-3%,0.1%,-5
CCN1CCN(C(=O)c2ccc3c(=O)n(CCC4=CCCCC4)c(=O)[nH]c3c2)CC1,-18%,-1%,0.2%,8
COc1ccc(N2CCN(CCCNC(=O)CCC(=O)N3CCOc4ccc(Cl)cc43)CC2)cc1,10%,-21%,2.7%,/
CC(=O)OC(C(=O)NCc1ccco1)c1ccncc1 (stereo unspecified),-1%,3%,-1.1%,9
Cc1ccc(C)c(NC(=O)CSc2nnc([C@@H]3CCCN3C(=O)OC(C)(C)C)o2)c1,-7%,-12%,-1.0%,-5
COCCn1c(C)cc(C2=NNC(=NC3CC3)SC2)c1C,?,-7%,-0.3%,5
O=C(Nc1ccccc1-c1ccccc1)C(=O)Nc1ccccc1-c1ccccc1,-1%,/,/,-19
N#C/C(=C\c1c(N(Cc2ccccc2)Cc2ccccc2)nc2ccccn2c1=O)C(N)=O,17%,-4%,?,-14
O=C1NCCN/C1=C\C(=O)c1ccc(F)cc1,-34%,3%,-1.6%,2
CCn1cc(C(=O)NCC2CCCO2)c(=O)c2cc(F)c(N3CCN(C)CC3)cc21 (stereo unspecified),-4%,8%,-6.9%,0
CC(C)NC(=O)CCCc1cn(C)c2ccccc12,-6%,-3%,-0.1%,1
OCCCc1nc2ccccc2n1CCCCOc1ccccc1,-5%&-4%,-5%,-1.5%,/
O=S1(=O)c2ccccc2OC(COCc2ccccc2)CN1C1CC1 (stereo unspecified),/,-8%,-0.9%,/
Cc1ccc(S(=O)(=O)c2nc(-c3cccs3)oc2SCC(N)=O)cc1,-9%,-12%,0.0%,4
CC(=O)C1=C(C)NC(SCC(N)=O)=C(C#N)C1c1ccco1 (stereo unspecified),1%,10%,3.7%,1
Cc1cc(C)nc(/N=C(\N)Nc2ccc(OCc3ccccc3)cc2)n1,30%,34%,2.9%,-3
Cc1cccc(Nc2nc(N)nc(CN3CCN(c4ccccc4F)CC3)n2)c1,/,-10%,-0.6%,/
FC(F)(F)c1cnc(-c2cnc3c(-c4ccc(Cl)cc4)cnn3c2)c(Cl)c1,-3%,5%,-1.0%,-11
Cn1c(CCN2CCCCC2)nc2cc([N+](=O)[O-])ccc21,8%,1%,-1.9%,3
O=C(CCCC(=O)c1ccc(O)cc1)c1ccc(O)cc1,/,1%,0.8%,/
CCN(CC)S(=O)(=O)c1ccc(C2=NOC3(C2)N(C)c2ccccc2C3(C)C)cc1 (stereo unspecified),22%,-3%,-0.6%,-6
CCC1CCCCN1C(=O)CSc1nc(N)cc(=O)[nH]1 (stereo unspecified),-4%,5%,-1.7%,/
CCCCNCC(O)(c1ccc(Cl)cc1)c1ccc(Cl)cc1,12%,?,-2.2%,1
CCn1cc(CN2CCC(n3nccc3NC(=O)CCCc3ccccc3)CC2)cn1,-3%,1%,-2.5%,/

(next part)
structure,miR-21 reporter,Rango release inh,Rango-impB inh,GLA inh pH 4.5
CCCOc1ccc(OCC(=O)c2[nH]c(C)c(C(C)=O)c2C)cc1,14%,2%,4.4%,2
O=C(N/N=C/c1ccccc1)c1cc[n+]([O-])cc1,-1%,4%,-3.3%,/
Cc1cccc(NC(=S)NNC(=O)c2ccc(Br)o2)c1,-24%,-8%,-0.5%,0
O=C(CSc1nnc2ccccn12)NCCc1ccc(F)cc1,-3%,15%,11%,-3
COc1cc(NC(=O)CSc2nccc(C)n2)c(C(=O)O)cc1OC,-2%,-7%,-0.5%,0
CCOC(=O)C1(C)NC(c2cccs2)C2C(=O)N(c3ccc(OC)cc3)C(=O)C21 (stereo unspecified),-2%,8%,2.9%,2
O=C(c1ccc(Cl)cc1)N1CCC2CC1c1cc(-c3ccccc3)ccc12 (stereo unspecified),/,-4%,6.7%,/
O=C(CCSCc1ccc(Cl)cc1)NCc1ccco1,-4%,0%,-4.6%,-19
O=C(Cc1ccc([N+](=O)[O-])cc1)N1CCc2ccccc2C1,-28%,-5%,-5.2%,2
CC(C)(C)[C@@H]1C=C(C(N)=O)O[C@H](OCc2ccc(CO)cc2)C1,4%,1%,-3.2%,-1
Cc1ccc(NS(=O)(=O)c2cc(C(=O)N(C)C)ccc2C)cc1C,1%,-5%,-0.6%,3
Cc1ccc(-n2c(SCC(=O)N3Cc4ccccc4CC3C(=O)O)nnc2-c2cccnc2)c(C)c1 (stereo unspecified),-4%,-4%,0.0%,-11
S=C1NCCc2ccccc2C1c1ccccc1Cl (stereo unspecified),0%,0%,-1.3%,-3
O=C(NCc1ccc(Cl)c(Cl)c1)c1ccc2c(c1)OCO2,-13%,-2%,0.0%,/
CC(=O)Nc1ccc(S(=O)(=O)NCCC(=O)OCc2nnc(-c3ccccc3)o2)cc1,/,16%,-1.3%,/
O=C(CCN1C(=O)c2ccccc2C1=O)NCc1ccco1,0%,11%,1.0%,-2
CCC(C)C(NC(=O)C(C)NC(=O)CNC(=O)OC(C)(C)C)C(N)=O (stereo unspecified),-3%,1%,-0.9%,3
COc1ccc(S(=O)(=O)N2CCC(C(=O)Nc3ccc(S(=O)(=O)N4CCCC4)cc3)CC2)cc1OC,/,15%,-1.2%,/
CNC(=S)N(CCO)Cc1cc2cc3c(cc2[nH]c1=O)OCCO3,-11%,4%,0.9%,/
CC(=O)c1ccc2c3c(cccc13)C(=O)N(CCc1ccccc1)C2=O,-37%,-24%,-0.3%,9
O=C(CSc1nnc2ncccn12)Nc1cccc2ccccc12,0%,1%,-2.5%,/
CCCCc1nc2cc(C(=O)NCc3nccn3CC)ccc2o1,-39%,0%,-0.8%,/
CCn1c(SCC(=O)NC(=O)Nc2ccc3c(c2)OCCO3)nnc1-c1cccs1,-26%,2%,-2.9%,-23
COc1ccc(CNC(=O)c2onc(C)c2Cl)cc1,-6%,13%,-1.9%,2
Cc1ccc(C(=O)COC(=O)c2ccc3c(c2)C(=O)N(c2cccc4ncccc24)C3=O)cc1,3%,4%,2.2%,-4
Cc1ccc(SCc2nc(-c3cccnc3)no2)cc1,-21%,-17%,2.4%,-3
Cc1ccc(-c2onc3ccc(Br)cc23)cc1,-6%,-16%,4.2%,/
CCCOc1ccc2oc(=O)c3c(c2c1)CCCN3C(=O)CN1CCN(c2ncccn2)CC1,13%,5%,4.8%,1
CC(=O)Nc1ccc2nc(-c3cccn3C)[nH]c2c1,-31%,-6%,2.5%,/

Profiles as entered above. Order of screens: miR-21 reporter, Rango release inh, Rango-impB inh, GLA inh pH 4.5
S=C1NCCc2ccccc2C1c1ccccc1Cl (stereo unspecified) across the screens: 0%, 0%, -1.3%, -3
CC(C)(C)[C@@H]1C=C(C(N)=O)O[C@H](OCc2ccc(CO)cc2)C1 across the screens: 4%, 1%, -3.2%, -1
